# Lassa entry inh: blocks Lassa virus binding to or entry into cells | Potency, µM (titrated, usually from 37.9 µM), without a hit: at the highest dose activity change, negative = inhibition, most hits filed as inhibitors | AID 540256 | Lassa virus pseudotype entry inhibition, cell reporter; control for the full effect not named in the record | 1.2% of 300,000 active; active means well fitted inhibition curve with a large enough effect; inconclusive means small, poorly fitted or top-dose-only effect, or effect the other way; inactive means flat fitted curve, though single readings scatter; tested in HEK293 cells; further: on the % scale 0 is the no-effect control and ±100 the full control effect; nearly all actives have a fitted effect of over 50% in size; luciferase read-out
# 2A StopGo: lowers the luciferase signal of an FMDV 2A StopGo reporter; human cells with a luciferase reporter of 2A StopGo recoding; control for the full effect not named in the record; Potency, µM (highest dose often 57.9 µM), without a hit: at the highest dose signal change, negative = less light; 1.2% of 410,000 active; AID 1159524; active = well fitted falling curve with a large enough effect; inconclusive = small, poorly fitted or top-dose-only effect; inactive = no such curve, though single readings can be large or run the other way; tested in HEK293T cells; further: on the % scale 0 is the no-effect control and ±100 the full control effect; nearly all actives have a fitted effect of over 45% in size; luciferase light after 4 h
# Marburg entry inh: inhibitors of Marburg virus binding or cell entry; Marburg virus pseudotyped entry inhibition, cell reporter; control for the full effect not named in the record; about a third of the inactives were read at about 46 µM; Potency, µM (titrated, usually from 37.8 µM), inactives show at the top dose activity change, negative = inhibition, hits mostly inhibitors; 1.8% of 300,000 active; active = well fitted inhibition curve with a large enough effect; inconclusive = small, poorly fitted or top-dose-only effect, or effect the other way; inactive = flat fitted curve, though single readings scatter; tested in HEK293 cells; about a fifth of its hits are not listed in these tables; further: on the % scale 0 is the no-effect control and ±100 the full control effect; luciferase read-out
# RE007 growth inh: less growth of the S. pombe RE007 Vpr strain | S. pombe RE007 Vpr strain, BacTiter-Glo ATP luminescence, 24 h; control for the full effect not named in the record | Potency, µM (titrated, usually from 92.2 µM), without a hit: top-dose activity change, negative = less growth | 0.21% of 360,000 active; active = well fitted falling curve with a large enough effect; inconclusive = small, poorly fitted or top-dose-only effect; inactive = no such curve, though single readings can be large or run the other way;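 further: on the % scale 0 is the no-effect control and ±100 the full control effect; nearly all actives have a fitted effect of over 50% in size; the assay follows cell death caused by Vpr and the record does not say whether a fall means rescue or toxicity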
#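 Fission yeast strain RE007, carrying one chromosomally integrated HIV-1 vpr copy, was seeded at OD 0.01 in PMG+AL medium with 23 nL pinned compound. After 24 h at 30 °C and 99% humidity, viability was read by BacTiter-Glo luminescence.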
# Cruzain inh noDet: cruzain (T. cruzi) inhibition without detergent. P25779. purified cruzain, Z-FR-AMC fluorescence, no detergent. Potency, µM, for inactives: max response, negative = inhibition, usual class: inhibitors. 2.3% of 200,000 active; active means well fitted curve in the direction sought with a large enough effect; inconclusive means small, poorly fitted or top-dose-only effect, or another doubt; inactive means no such curve, though single readings can be large; an effect the other way counts as inactive or inconclusive;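 further: plate controls were enzyme without inhibitor for no effect and buffer without enzyme for full effect; nearly all actives have a fitted effect of over 40% in size; top concentration of the series not given in the record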
# Target sequence (P25779 123-467 limits assumed): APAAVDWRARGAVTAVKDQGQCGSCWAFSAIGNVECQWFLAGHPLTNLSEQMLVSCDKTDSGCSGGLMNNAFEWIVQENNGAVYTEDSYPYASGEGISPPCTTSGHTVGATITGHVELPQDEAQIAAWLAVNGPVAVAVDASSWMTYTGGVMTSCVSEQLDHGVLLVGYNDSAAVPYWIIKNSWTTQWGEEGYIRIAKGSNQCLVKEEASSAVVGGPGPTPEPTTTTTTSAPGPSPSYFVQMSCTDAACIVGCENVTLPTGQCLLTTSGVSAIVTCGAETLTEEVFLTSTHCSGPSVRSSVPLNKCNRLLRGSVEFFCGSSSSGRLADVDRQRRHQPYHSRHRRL
#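 Detergent-free condition (0.00005% Triton X-100) in acetate buffer pH 5.5 with DTT. 1.5 nM enzyme and compound were pre-mixed 15 min, then 2 uM Z-FR-AMC substrate added; reaction progress from fluorescence change between first and third reads (60 s).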
# Cruzain inh Det: cruzain (T. cruzi) inhibition with detergent; Potency, µM, inactives show max response, negative = inhibition, usual class: inhibitors; purified cruzain, Z-FR-AMC fluorescence, 0.01% Triton; 0.43% of 200,000 active; P25779; active means well fitted curve in the direction sought with a large enough effect; inconclusive means small, poorly fitted or top-dose-only effect, or another doubt; inactive means no such curve, though single readings can be large; an effect the other way counts as inactive or inconclusive;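 further: plate controls were neutral wells for no effect and buffer without enzyme for full effect; nearly all actives have a fitted effect of over 40% in size; top concentration of the series not given in the record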
#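 Detergent-containing arm of a paired screen for aggregation-based inhibition: 0.01% Triton X-100 present. Cruzain at 1.5 nM cleaved 2 uM Z-FR-AMC at pH 5.5 with 5 mM DTT; AMC fluorescence gain over 60 s measured activity.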
# NS1 function inh: inhibitors of influenza NS1 protein function | S. cerevisiae slowed by influenza A NS1, growth recovery by OD600 | Potency, µM (top dose mostly 46.1 µM), for the others: at the highest dose activity, positive = more growth | 0.4% of 270,000 active | AID 2326; further: actives are rising curves; nearly all actives have a fitted effect of over 50% in size
#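 Growth recovery, yeast-based: influenza A NS1 expressed in S. cerevisiae causes slow growth, and suppressors are detected by OD600. The parent strain without NS1 is used as positive control.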
# SARS PLP yeast: SARS-CoV PLP inhibition in yeast; S. cerevisiae expressing SARS-CoV PLpro, growth rescue; control for the full effect not named in the record; Potency, µM (titrated, usually from 32.9 µM), for the others: at the highest dose activity, positive = growth rescue; 0.19% of 330,000 active; AID 485353; further: 0% is about no effect; nearly all actives have a fitted effect of over 55% in size; growth read by luminescence after 48 h
# Active calls of the source: *; ? = inconclusive; · = not tested or not shown; [ ] = another dose, or the depositor's remark. Unless noted, the call rests on the fitted dose curve; in most records, active means well fitted rising curve with a large enough effect; inconclusive means small, poorly fitted or top-dose-only effect; inactive means no such curve, though single readings can be large or run the other way. Potency means the concentration at half of the fitted maximal effect.
SMILES,Lassa entry inh,2A StopGo,Marburg entry inh,RE007 growth inh,Cruzain inh noDet,Cruzain inh Det,NS1 function inh,SARS PLP yeast
CCOc1ccc(NC(=S)N2CCN(C/C=C/c3ccccc3)CC2)cc1,·,-4.7%,-21.0%[46.1 µM],-9.7%,·,·,·,?
CS(=O)(=O)N(CC(=O)N1CCOCC1)c1ccc2c3c(cccc13)CC2,5.7%,-17.0%,-28.6%[46.1 µM],3.5%,12.0%,-0.9%,-0.7%,2.9%
Cc1ccc(S(=O)(=O)N(C)C)cc1NC(=O)C(C)N(C)Cc1sccc1C (stereo not given),·,15.8µM*,?,-7.0%,·,·,1.0%,2.2%
COc1cc(CCC(=O)OCC(=O)N2CC(=O)Nc3ccccc32)cc(OC)c1OC,8.9%,-11.8%,1.0%,-0.8%,·,·,·,-2.5%
CN(NC(=O)c1c(Cl)cccc1Cl)c1cccc(Cl)n1,4.0%,-23.2%,4.7%,24.4%,·,·,·,-1.1%
CNc1cc([N+](=O)[O-])ccc1N/C=C/C(=O)c1ccc2c(c1)OCO2,8.4%,-16.4%,6.5%,8.1%,?,-11.2%,?,-7.4%
CSc1nnc2c(n1)OC(C)=Nc1ccccc1-2,20.0%,-14.3%,-0.2%,-8.9%,-4.2%,-1.6%,-7.9%,0.8%
O=C(NC1CCCC1)c1ccc(CS(=O)(=O)Cc2ccccc2Cl)o1,·,-1.6%,·,1.8%,·,·,-7.2%,?
COc1ccc(OC)c(NC(=O)CSc2nnc(CNC(=O)COc3ccc(Cl)cc3)o2)c1,19.7%,-10.1%,?,12.0%,?,2.4%,-5.0%,-6.7%
O=C1NC(c2ccccc2)(C(F)(F)F)C(=O)N1Cc1cccnc1 (stereo not given),6.5%,?,?,-7.2%,9.9%,4.0%,-9.2%,3.8%
COC(=O)c1ccc(NC(=O)CNC(=O)C2CCCCC2)cc1,?,·,17.4%,8.6%,0.6%,4.8%,7.9%,-4.6%
COc1ccc(OC)c(/C=N\NC(=O)c2c(C)nc3cc(C)ccn23)c1,11.5%,8.4%,0.3%,-10.1%,·,·,-2.9%,24.7%
CCc1ccc(N(CC(=O)NC2CCCCC2)S(=O)(=O)c2c(C)noc2C)cc1,·,-9.5%,·,7.0%,-3.6%,2.6%,5.4%,-1.4%
COc1cccc(C(=O)NCC2CCCN2S(=O)(=O)c2ccccc2)c1 (stereo not given),-18.7%,-1.3%,0.7%[46.1 µM],20.4%,·,·,·,4.1%

# Entries of single compounds from above. Screens in order: Lassa entry inh | 2A StopGo | Marburg entry inh | RE007 growth inh | Cruzain inh noDet | Cruzain inh Det | NS1 function inh | SARS PLP yeast
# COc1cccc(C(=O)NCC2CCCN2S(=O)(=O)c2ccccc2)c1 (stereo not given) reads -18.7% | -1.3% | 0.7%[46.1 µM] | 20.4% | · | · | · | 4.1%
# CNc1cc([N+](=O)[O-])ccc1N/C=C/C(=O)c1ccc2c(c1)OCO2 reads 8.4% | -16.4% | 6.5% | 8.1% | ? | -11.2% | ? | -7.4%
# COc1ccc(OC)c(/C=N\NC(=O)c2c(C)nc3cc(C)ccn23)c1 reads 11.5% | 8.4% | 0.3% | -10.1% | · | · | -2.9% | 24.7%
# COc1ccc(OC)c(NC(=O)CSc2nnc(CNC(=O)COc3ccc(Cl)cc3)o2)c1 reads 19.7% | -10.1% | ? | 12.0% | ? | 2.4% | -5.0% | -6.7%

# Some values from above:
# Under 2A StopGo, `COc1ccc(OC)c(NC(=O)CSc2nnc(CNC(=O)COc3ccc(Cl)cc3)o2)c1` has the entry -10.1%
# Under RE007 growth inh, `COc1ccc(OC)c(/C=N\NC(=O)c2c(C)nc3cc(C)ccn23)c1` has the entry -10.1%
# Under Marburg entry inh, `CS(=O)(=O)N(CC(=O)N1CCOCC1)c1ccc2c3c(cccc13)CC2` has the entry -28.6%[46.1 µM]
# Under Lassa entry inh, `O=C1NC(c2ccccc2)(C(F)(F)F)C(=O)N1Cc1cccnc1` (stereo not given) has the entry 6.5%
# Under Cruzain inh noDet, `CCc1ccc(N(CC(=O)NC2CCCCC2)S(=O)(=O)c2c(C)noc2C)cc1` has the entry -3.6%
# Under 2A StopGo, `CN(NC(=O)c1c(Cl)cccc1Cl)c1cccc(Cl)n1` has the entry -23.2%
# Under NS1 function inh, `CSc1nnc2c(n1)OC(C)=Nc1ccccc1-2` has the entry -7.9%

# Source: PubChem (National Center for Advancing Translational Sciences (NCATS))
